VCAM-1 up imaging: boosters of cytokine-driven VCAM-1 levels – imaging, high-content imaging, pooled HUVEC, TNFa stimulus (AID 457) | Pooled HUVEC, TNFa-induced VCAM-1 immunofluorescence imaging; hits of this screen are not shown here | calls only | 10,000 tested, 0.2% active;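 active = a top-ranked rise in VCAM-1 staining upheld on image or statistical review; inactive = the rest, including candidates rejected on review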;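 note: compounds tested at 5 µM in the well; cells exposed to compound for 24 hours before fixing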
FPRL1 ligand: ligands of human FPRL1, also counter-screen for FPR ligands | P25090 | FPRL1-expressing cells, fluorescent ligand binding inhibition, flow cytometry | inhibition, %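 (tested at 6.7 µM)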 | 24,000 tested, 0.3% active | AID 441;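 note: 0% = buffer alone and 100% = receptor blocker peptide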
Target sequence (P25090 whole entry, looked up): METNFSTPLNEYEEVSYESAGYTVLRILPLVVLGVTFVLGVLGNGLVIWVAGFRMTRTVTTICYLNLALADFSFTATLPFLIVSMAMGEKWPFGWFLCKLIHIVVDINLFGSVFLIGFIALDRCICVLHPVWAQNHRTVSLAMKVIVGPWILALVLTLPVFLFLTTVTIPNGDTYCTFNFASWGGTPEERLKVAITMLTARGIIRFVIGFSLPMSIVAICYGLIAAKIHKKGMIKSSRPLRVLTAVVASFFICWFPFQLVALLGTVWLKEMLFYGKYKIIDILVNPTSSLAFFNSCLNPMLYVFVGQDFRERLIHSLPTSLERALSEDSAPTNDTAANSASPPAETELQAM
VCAM-1 down: inhibitors of TNFa-induced VCAM-1 surface display, cell-based, plate reader, pooled HUVEC, TNFa stimulus (AID 454). 10,000 tested, 0.2% active. inhibition, % at 5 µM. HUVEC TNFa-induced VCAM-1 surface immunofluorescence, plate reader; numbers were filed only for top-ranked candidate wells;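 active = compound among top-ranked inhibitors of TNF-induced VCAM-1 adhesion protein staining, with the hit upheld by image or statistical review; inactive = the rest, including hits rejected on review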;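 note: 0% = TNFa with vehicle and 100% = cells without TNFa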
FPR binder: ligands of human FPR, also counter-screen for FPRL1 ligands | FPR-expressing cells, fluorescent ligand binding, flow cytometry | inhibition, %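 (tested at 6.7 µM)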 | 24,000 tested, 0.74% active | AID 440;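 note: 0% = buffer wells and 100% = receptor blocker peptide wells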
VCAM-1 imaging: suppression of endothelial VCAM-1 upregulation – imaging, high-content imaging, pooled HUVEC, TNFa stimulus (AID 456). HUVEC TNFa-induced VCAM-1 surface expression, immunofluorescence imaging; numbers were filed only for top-ranked candidate wells. inhibition, % at 5 µM; hits with a dose series show IC50 in µM. 10,000 tested, 0.2% active;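 active = top tenth filtered wells with inhibition above zero that passed visual or statistical confirmation; inactive = the rest, including hits rejected on review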;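 note: 0% = stimulated vehicle wells and 100% = unstimulated cells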
The depositor's hits bear a star; i = inactive; x = no result given.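 Rule for the calls, unless noted: active = mean above 30%; inconclusive = self-fluorescent; inactive = the rest.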 An excerpt; the hit share may differ from the screen's.

Start of the data: the first 6 entries (preview)
1: CCOC(=O)N1CCN(C(=O)c2ccc3nc(N4CCCCC4)sc3c2)CC1
2: CCn1c(C)c(C(C)=O)c(N2CCCCC2)nc1=S
3: CN(C)C(=O)CN(C)S(=O)(=O)c1ccc(Cl)cc1
4: CCC(=O)N1CCc2cc(S(=O)(=O)NC(C(=O)NCc3ccccc3)C(C)C)ccc21 (configuration not stated)
5: Cn1ccnc1SCCC#N
6: CC(=O)Nc1nc(C)nc(C)c1C(C)=O
compound no. | 1 | 2 | 3 | 4 | 5 | 6
VCAM-1 down | x | x | i | x | i | x
FPR binder | -0.9 | -1.4 | -1.3 | -0.5 | -2.9 | -14.1
FPRL1 ligand | 5.9 | 9.3 | 0.2 | -3.3 | -5.7 | -6.6
VCAM-1 imaging | x | x | i | x | i | x
VCAM-1 up imaging | x | x | i | x | i | x

This part in full, repeating the preview:
1: CCOC(=O)N1CCN(C(=O)c2ccc3nc(N4CCCCC4)sc3c2)CC1
2: CCn1c(C)c(C(C)=O)c(N2CCCCC2)nc1=S
3: CN(C)C(=O)CN(C)S(=O)(=O)c1ccc(Cl)cc1
4: CCC(=O)N1CCc2cc(S(=O)(=O)NC(C(=O)NCc3ccccc3)C(C)C)ccc21 (configuration not stated)
5: Cn1ccnc1SCCC#N
6: CC(=O)Nc1nc(C)nc(C)c1C(C)=O
compound no. | 1 | 2 | 3 | 4 | 5 | 6
VCAM-1 down | x | x | i | x | i | x
FPR binder | -0.9 | -1.4 | -1.3 | -0.5 | -2.9 | -14.1
FPRL1 ligand | 5.9 | 9.3 | 0.2 | -3.3 | -5.7 | -6.6
VCAM-1 imaging | x | x | i | x | i | x
VCAM-1 up imaging | x | x | i | x | i | x

7: O=C(NCC1CCCO1)C1CCC(=O)N1Cc1ccccc1Cl (configuration not stated)
8: COc1ccccc1N1CSC2=C(C#N)C(c3ccc(SC)cc3)CC(=O)N2C1 (configuration not stated)
9: CCOC(=O)N1CCN(CC(O)COC(CC)c2ccccc2)CC1 (configuration not stated)
10: Cc1ccc(S(=O)(=O)Nc2cc(C(=O)NCCN3CCCC3)ccc2N2CCCCC2)cc1
11: CCCc1cc(C(=O)Nc2cc(Br)ccc2O)no1
12: CN1CCN(c2ccccc2NS(=O)(=O)c2ccc3c(c2)CCN3C(=O)C2CCC2)CC1
13: Cc1ccc(CNC(=O)CN2C(=O)C3(OCCCO3)c3ccccc32)cc1
14: O=C(NCc1ccco1)c1ccc(N2CCCC2=O)cc1
15: CN(CC(=O)Nc1ccc(F)c(F)c1)S(=O)(=O)c1cccc2nsnc12
compound no. | 7 | 8 | 9 | 10 | 11 | 12 | 13 | 14 | 15
VCAM-1 down | x | x | x | x | x | x | x | x | x
FPR binder | 2.8 | 5.3 | -6.4 | 0.9 | -4.2 | 0.6 | 1.0 | -1.6 | -3.3
FPRL1 ligand | -1.5 | -2.6 | 4.4 | -8.9 | 1.1 | -4.4 | -6.4 | 2.5 | -7.5
VCAM-1 imaging | x | x | x | x | x | x | x | x | x
VCAM-1 up imaging | x | x | x | x | x | x | x | x | x

3 entries already listed, arranged by SMILES length, highest first:
8: COc1ccccc1N1CSC2=C(C#N)C(c3ccc(SC)cc3)CC(=O)N2C1 (configuration not stated)
13: Cc1ccc(CNC(=O)CN2C(=O)C3(OCCCO3)c3ccccc32)cc1
14: O=C(NCc1ccco1)c1ccc(N2CCCC2=O)cc1
compound no. | 8 | 13 | 14
VCAM-1 down | x | x | x
FPR binder | 5.3 | 1.0 | -1.6
FPRL1 ligand | -2.6 | -6.4 | 2.5
VCAM-1 imaging | x | x | x
VCAM-1 up imaging | x | x | x
